High-throughput results from PubChem BioAssay.
GALR2 agonist: activates the human galanin receptor 2. GALR2-expressing cells, agonist activation read-out. activation, %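 (tested at 5 µM)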. 140,000 compounds, 0.48% hits. AID 803;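 active = above mean plus 3 SD of all compounds, about 5% in these data, not always enough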;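 also: 0% = vehicle buffer wells and 100% = reference agonist at full effect; tested in CHO reporter cells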
Target sequence (O43603 whole entry, looked up): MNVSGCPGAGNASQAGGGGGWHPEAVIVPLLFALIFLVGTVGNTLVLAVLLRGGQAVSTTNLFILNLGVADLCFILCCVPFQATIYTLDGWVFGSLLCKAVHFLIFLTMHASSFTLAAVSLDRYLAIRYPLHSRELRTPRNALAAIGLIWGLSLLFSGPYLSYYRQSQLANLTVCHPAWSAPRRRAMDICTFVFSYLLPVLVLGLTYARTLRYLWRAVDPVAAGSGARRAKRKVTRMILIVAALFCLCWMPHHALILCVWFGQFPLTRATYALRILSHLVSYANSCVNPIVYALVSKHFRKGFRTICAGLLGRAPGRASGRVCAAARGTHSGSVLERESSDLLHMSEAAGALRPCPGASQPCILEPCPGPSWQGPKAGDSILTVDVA
INS promoter inh: TRM-6 insulin promoter activity inhibition | TRM-6 cells (human fetal islet line), insulin promoter-eGFP reporter, imaging; reporter expression induced with tamoxifen | inhibition, % at 2 µM | 130,000 compounds, 0.9% hits | AID 1273;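 active = inhibition above the mean plus 3 SD, with well images judged a real hit on visual review, cut at about 60% in these data, passing the limit was not always enough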
RGS16-Gao: modulates binding between human RGS16 and Galphao; bead-based flow cytometry RGS16-Galphao binding, fluorescence; actives lie on both sides; O15492+P09471; 220,000 compounds, 0.38% hits; AID 1441; binding response (% of control), % at 10 µM;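 active = below 25% or above 175%, edge rows of some plates excepted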;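 also: Galphao activated by GDP with aluminum fluoride before binding; 100% = wells without compound and 0% = beads without RGS; some results beyond the cut were filed as inactive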
Target sequence (O15492 whole entry, looked up): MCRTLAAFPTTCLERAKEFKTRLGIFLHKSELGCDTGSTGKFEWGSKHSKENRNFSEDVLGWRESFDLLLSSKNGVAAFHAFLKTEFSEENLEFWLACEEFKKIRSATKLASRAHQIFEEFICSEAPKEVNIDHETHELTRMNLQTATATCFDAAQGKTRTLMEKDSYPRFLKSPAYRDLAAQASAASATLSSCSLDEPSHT
Target sequence (P09471 whole entry, looked up): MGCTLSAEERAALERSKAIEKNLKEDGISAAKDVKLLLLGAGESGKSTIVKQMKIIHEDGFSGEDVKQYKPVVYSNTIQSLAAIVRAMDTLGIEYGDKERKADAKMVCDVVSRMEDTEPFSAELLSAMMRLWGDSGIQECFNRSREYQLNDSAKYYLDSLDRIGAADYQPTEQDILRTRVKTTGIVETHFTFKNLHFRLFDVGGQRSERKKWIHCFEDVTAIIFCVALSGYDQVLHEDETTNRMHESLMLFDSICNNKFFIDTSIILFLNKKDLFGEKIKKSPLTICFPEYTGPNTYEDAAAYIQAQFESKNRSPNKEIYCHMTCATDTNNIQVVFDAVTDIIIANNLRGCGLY
PKD1 kinase inh: blocks activity of human protein kinase D1 | inhibition, %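 (about 10 µM by stock and volumes)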 | Q15139 | PKD1 kinase fluorescence polarization assay | 200,000 compounds, 0.056% hits | AID 797;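 active = inhibition of 50% or more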;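 also: controls were vehicle for no effect and a reference inhibitor for full effect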
HSV replic up: increases HSV replication in cells; HSV replication augmentation in cells, fold increase; maximum fold increase; 220,000 compounds, 0.005% hits; AID 1956;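 active = peak rise of 1.5-fold or more in the series; tested in PC3 cells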;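 also: first round at 10 µM; read as green reporter fluorescence; hits show the peak of a series up to 25 µM; 1 = signal of infected wells without compound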
INS promoter inh cell count: second read-out of INS promoter inh, no call of its own (marks repeat the call); normalized cell count, %; measured here: cell count, toxicity; reference of the scale not given here;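 cells exposed to compound for 48 h; stained nuclei by imaging scaled within each plate; lower means fewer cells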
HSV replic up primary fold: also measured in HSV replic up; calls as there; fold increase; compound at 10 µM; measured here: primary screen fold increase 10 uM; tested in PC3 cells;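 GFP signal in the first replicate; 1 = infected wells without compound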
* marks the source's active call; other numbers are inactive results; i = inactive; x = no result given.

SMILES | GALR2 agonist | INS promoter inh | INS promoter inh cell count | RGS16-Gao | PKD1 kinase inh | HSV replic up | HSV replic up primary fold
CCN(CC)CCN1C(=O)c2cccc3cc(N)cc(c23)C1=O | x | x | x | 99 | x | i | 1
CC(Nc1c([N+](=O)[O-])c(=O)oc2ccccc12)c1ccccc1 (stereo not drawn) | x | x | x | 98 | x | i | 0.87
CCN1/C(=C/C(C)=O)Sc2ccc(OC)cc21 | -2.1 | x | x | 99 | 78* | i | 1.1
C[C@@H](C(=O)N1CCN(C(=O)OC(C)(C)C)CC1)n1cc(CCC(=O)O)nn1 | x | x | x | 101 | 4 | i | 1.1
COCCNC(=O)c1ccccc1NC(=O)Cc1ccccc1 | x | x | x | 107 | 7 | i | 0.93
Cc1ccc(C)c(OCCOCCN2CCOCC2)c1 | 0.1 | 20 | 86 | 118 | 3 | i | 0.83
CN=c1scc(-c2c[nH]c3ccccc23)n1C | x | 36 | 126 | 106 | 0 | i | 0.95
CN1CCN(c2nnc(-c3ccccc3)c(-c3ccccc3)n2)CC1 | x | x | x | 107 | x | i | 0.88
CN(CCOC(=O)c1ccco1)Cc1ccccc1 | 0.0 | -8 | 75 | 98 | -2 | i | 0.95
CN1CCN(C(=O)c2cnn3c(C(F)F)cc(C4CC4)nc23)CC1 | -0.4 | 65 | 106 | 98 | 6 | i | 0.84
C=CCn1c(SCC(=O)NCc2ccccc2)nnc1C1CCCCC1 | -2.1 | -88 | 142 | 99 | 2 | i | 1
COc1ccc(-n2ncc(C(=O)N3CCN(c4ccc(F)cc4)CC3)c2C)cc1 | x | x | x | 104 | x | i | 0.92
COc1ccc(-c2noc(CN(C)S(=O)(=O)c3ccc(C)cc3)n2)cc1 | 0.0 | -6 | 96 | 99 | -16 | i | 1.2
CC(C)Cc1nnc(NC(=O)CCC(=O)Nc2ccc(F)cc2)s1 | 0.2 | -16 | 146 | 103 | 0 | i | 1.1
COc1ccccc1OCC(O)Cn1c(=N)n(CCN2CCCCC2)c2ccccc21 (stereo not drawn) | -1.5 | 45 | 92 | 99 | 5 | i | 0.74
COc1ccc(Cl)cc1C(=O)n1nc(C)cc1C | -0.7 | -36 | 31 | 99 | -2 | i | 0.99
N#Cc1ccc(COC(=O)Cn2nnc(-c3ccccc3)n2)cc1 | -2.3 | 55 | 152 | 99 | -12 | i | 0.97
CC(c1nc2ccccc2c(=O)[nH]1)N1CCN(C)CC1 (stereo not drawn) | -0.9 | -55 | 87 | 102 | -1 | i | 0.95
O=C(N/N=C\c1cn[nH]c1-c1ccccc1)c1cccs1 | -0.6 | -50 | 153 | 104 | 34 | i | 0.93
O=C(O)CCC(=O)Nc1ccc(N2CCCCC2)c(C(=O)O)c1 | -1.2 | -38 | 111 | 107 | -9 | i | 1.1
COC(=O)c1cccc(NC(=O)/C=C/c2ccc([N+](=O)[O-])cc2)c1 | -0.6 | 0 | 121 | 112 | 2 | i | 0.94
O=C(Nc1ccc(F)cc1)c1ccc(CSc2ccccc2)o1 | -1.7 | x | x | 99 | -3 | i | 1.2
Cc1ccc(-n2c(C)nn(CCOc3ccccc3)c2=O)cc1 | x | x | x | 91 | -3 | i | 0.96
Cc1ccc(-c2nc(C)sc2CC(=O)OCC(=O)Nc2cccc([N+](=O)[O-])c2)cc1 | -1.0 | 19 | 106 | 59 | 9 | i | 0.98
N#Cc1c(NC(=O)c2cc([N+](=O)[O-])ccc2N2CCOCC2)sc2c1CCCC2 | -1.0 | 6 | 206 | 102 | -6 | i | 0.93
Cn1c(-c2ccc(C=O)s2)nc2c3ccccc3c3ccccc3c21 | 3.0 | -38 | 112 | 101 | -4 | i | 0.79
CC(C)C(=O)NCCc1nc2ccccc2n1C | -1.7 | 57 | 96 | 102 | 6 | i | 0.84
COC(=O)c1ccc(NC(=O)CN2CCC(NC(=O)c3ccco3)CC2)cc1 | x | 27 | 109 | 101 | 1 | i | 0.98
Cc1ccc(S(=O)(=O)Nc2nc(C)c(C(=O)N/N=C/c3ccccc3)s2)cc1 | x | 5 | 77 | 107 | 8 | i | 1
CC(C)(C)c1cc2cccnc2n1Cc1cccc(F)c1 | -1.8 | x | x | 105 | 0 | i | 0.89
O=C(Nc1nc2ccccc2n1CCN1CCOCC1)c1ccc(Cl)cc1 | x | x | x | 106 | x | i | 0.87
CNS(=O)(=O)c1ccc(NC(=O)c2cncc(Br)c2)cc1 | x | x | x | 100 | 0 | i | 0.84
C=CCNC(=O)CSc1nnc(-c2ccncc2)n1CCc1ccccc1 | -1.7 | -467 | 52 | 121 | -2 | i | 0.88
C=CCNC(=O)c1ccccc1Cl | -0.1 | 36 | 76 | 112 | -8 | i | 1.2
O=C(CSc1n[nH]c(-c2ccncc2)n1)NCCc1ccccc1 | -2.2 | -152 | 122 | 105 | -9 | i | 0.97
CS(=O)(=O)N1CCC(C(=O)NCc2ccc(F)cc2)CC1 | x | x | x | 102 | -9 | i | 0.83
O=c1c(-c2c(O)cc(O)c3c(=O)cc(-c4ccc(O)cc4)oc23)c(-c2ccc(O)cc2)oc2cc(O)cc(O)c12 | x | x | x | 101 | x | i | 0.93
S=C1N(c2ccccc2)C(c2ccccc2)N2CCCN12 (stereo not drawn) | -2.1 | 35 | 109 | 96 | -6 | i | 1
Cc1csc(NC(=O)CNC(=O)OCc2ccccc2)n1 | -1.7 | 26 | 89 | 100 | -6 | i | 1.2
O=C(COc1ncnc2sccc12)Nc1ccc2c(c1)OCCO2 | -2.2 | x | x | 97 | -4 | i | 0.94
CC(C)OC(=O)c1cc2c(ccn2C)n1CC(=O)N1CCC(Cc2ccccc2)CC1 | -0.9 | 34 | 155 | 92 | 0 | i | 0.88
CCN(CC)S(=O)(=O)c1cc(C(=O)OCC(=O)Nc2cccc(C)c2C)ccc1F | -1.3 | 0 | 78 | 102 | 5 | i | 0.95
COc1ccc(/C=N/N2CCN(C)CC2)cc1OC | -3.0 | -15 | 97 | 113 | 0 | i | 0.93
NS(=O)(=O)c1ccc(NC(=O)C2(c3ccccc3)CCCC2)cc1 | x | 21 | 104 | 101 | -3 | i | 0.96
COc1ccc(C(C(=O)NC2CCCC2)N(CCN2CCOCC2)C(=O)c2ccc(OC)c(OC)c2)cc1 (stereo not drawn) | -0.7 | 32 | 77 | 109 | 1 | i | 0.68
COc1ccc(OC)c(NC(=O)c2ccccc2N(Cc2ccccc2)S(C)(=O)=O)c1 | x | 17 | 72 | 97 | 4 | i | 0.71
COc1ccc(C(=O)N2c3cc4c(cc3C(C)=CC2(C)C)OCO4)cc1 | -2.8 | 20 | 109 | 103 | 1 | i | 0.91
CC1CN(c2nc3ccccn3c(=O)c2/C=C(\C#N)S(=O)(=O)c2ccccc2)CC(C)O1 (stereo not drawn) | 0.6 | -162 | 85 | 98 | -6 | i | 0.81
CC1(C)C(N(O)C(=O)Nc2ccc(Cl)cc2)N(c2ccc(Cl)cc2)C(=O)N1CC(=O)NN (stereo not drawn) | -1.8 | 0 | 111 | 98 | -5 | i | 0.97
COc1ccccc1CNC(=O)c1csc(Cc2ccc(Cl)cc2)n1 | -1.4 | 60 | 43 | 110 | -13 | i | 0.84

A few values from the list.
In PKD1 kinase inh, `COc1ccc(C(=O)N2c3cc4c(cc3C(C)=CC2(C)C)OCO4)cc1` has the entry 1
In INS promoter inh cell count, `NS(=O)(=O)c1ccc(NC(=O)C2(c3ccccc3)CCCC2)cc1` has the entry 104
In INS promoter inh, `CC(C)OC(=O)c1cc2c(ccn2C)n1CC(=O)N1CCC(Cc2ccccc2)CC1` has the entry 34
In HSV replic up primary fold, `CCN(CC)S(=O)(=O)c1cc(C(=O)OCC(=O)Nc2cccc(C)c2C)ccc1F` has the entry 0.95
In INS promoter inh cell count, `CC1CN(c2nc3ccccn3c(=O)c2/C=C(\C#N)S(=O)(=O)c2ccccc2)CC(C)O1` (stereo not drawn) has the entry 85
In INS promoter inh cell count, `CC1(C)C(N(O)C(=O)Nc2ccc(Cl)cc2)N(c2ccc(Cl)cc2)C(=O)N1CC(=O)NN` (stereo not drawn) has the entry 111

Next part.
SMILES | GALR2 agonist | INS promoter inh | INS promoter inh cell count | RGS16-Gao | PKD1 kinase inh | HSV replic up | HSV replic up primary fold
Cc1ccc(C(c2nnnn2CC2CCCO2)N2CCN(Cc3ccccc3)CC2)cc1 (stereo not drawn) | x | 63 | 78 | 109 | -4 | i | 0.98
O=C(/C=C/c1ccco1)Nc1ccccc1C(=O)Nc1cccc(C(=O)O)c1 | x | x | x | 96 | x | i | 1.1
O=C(Nc1cccc(-c2csc(Nc3ccc(Cl)cc3)n2)c1)c1cc([N+](=O)[O-])cc(C(F)(F)F)c1 | x | x | x | 104 | x | i | 0.73
Cc1c(C(=O)NCCSCc2c(F)cccc2Cl)cnn1-c1ccc(F)cc1 | x | x | x | 100 | x | i | 1
CN=C(Nc1ccc(C(=O)OC)s1)c1ccc(Cl)cc1 | x | -73 | 83 | 115 | -4 | i | 0.85
CCCC(=O)C1=C(O)C(C(=O)OC)C(C)(C)CC1=NC(C)(C)C (stereo not drawn) | -0.8 | 50 | 84 | 91 | -9 | i | 0.94
COc1ccc(CC(NC(C)=O)C(=O)NC2CCN(C(=O)Nc3ccc(C#N)cc3)CC2)cc1OC (stereo not drawn) | -1.5 | 25 | 100 | 106 | 1 | i | 1.2
O=S(=O)(c1ccc(Cl)s1)N1CCCCC1 | x | 65 | 68 | 112 | -1 | i | 0.91
CC(=O)Nc1ccccc1O | -1.1 | -32 | 53 | 53 | -8 | i | 0.84
CCCCC(CC)C(=O)Nc1ccccc1C#N (stereo not drawn) | 0.4 | -22 | 112 | 117 | -2 | i | 0.8
Cc1cc(NC(=O)/C=C/C(=O)N(CC(=O)NC2CCCC2)c2cccc3ccccc23)no1 | x | -8 | 87 | 102 | -2 | i | 0.72
CCOC(=O)CNC(=O)CCNS(=O)(=O)c1ccc2c(c1)c(=O)n(C)c(=O)n2C | 0.3 | 24 | 86 | 101 | -11 | i | 0.89
Cc1ccc(C(=O)c2ccc(N3CCOCC3)c(F)c2)cc1 | -2.1 | -369 | 59 | 109 | -10 | i | 0.87
CC(=O)c1cccc(NC(=O)N2CCc3ccccc3C2)c1 | -1.2 | 32 | 96 | 101 | -5 | i | 1.1
Cc1cc(/C=N/NC(=O)c2ccc(CN3CCOCC3)cc2)c(C)n1-c1ccccc1 | -3.0 | -11 | 70 | 101 | 10 | i | 1
Cc1ccccc1NC(=O)c1cc(S(=O)(=O)N2CCOCC2)cs1 | -1.2 | -369 | 67 | 109 | -6 | i | 0.77
COc1ccc(OC)c(NC(=O)Nc2ccc(Cl)cc2)c1 | -2.5 | -17 | 103 | 101 | -8 | i | 0.77
Cc1ccc(CSc2nnc(CNc3ccc(F)cc3)o2)cc1 | x | 13 | 85 | 102 | -2 | i | 1
O=S(=O)(c1ccc(Cl)cc1)N1CCN(C(=S)Nc2ccc(F)c(Cl)c2)CC1 | -1.7 | 14 | 109 | 101 | 2 | i | 0.82
COc1ccc(CNC(=O)c2cnc3n(c2=O)CCS3)cc1 | -1.3 | x | x | 107 | 8 | i | 0.92
Cc1ccc(C(=O)c2ccc(C(F)(F)F)cc2)cc1 | -2.7 | -17 | 83 | 99 | 0 | i | 0.92

Among those listed so far, five have a cyano group:
SMILES | GALR2 agonist | INS promoter inh | INS promoter inh cell count | RGS16-Gao | PKD1 kinase inh | HSV replic up | HSV replic up primary fold
N#Cc1ccc(COC(=O)Cn2nnc(-c3ccccc3)n2)cc1 | -2.3 | 55 | 152 | 99 | -12 | i | 0.97
N#Cc1c(NC(=O)c2cc([N+](=O)[O-])ccc2N2CCOCC2)sc2c1CCCC2 | -1.0 | 6 | 206 | 102 | -6 | i | 0.93
CC1CN(c2nc3ccccn3c(=O)c2/C=C(\C#N)S(=O)(=O)c2ccccc2)CC(C)O1 (stereo not drawn) | 0.6 | -162 | 85 | 98 | -6 | i | 0.81
COc1ccc(CC(NC(C)=O)C(=O)NC2CCN(C(=O)Nc3ccc(C#N)cc3)CC2)cc1OC (stereo not drawn) | -1.5 | 25 | 100 | 106 | 1 | i | 1.2
CCCCC(CC)C(=O)Nc1ccccc1C#N (stereo not drawn) | 0.4 | -22 | 112 | 117 | -2 | i | 0.8
